Cruzain noTriton: inhibitors of Trypanosoma cruzi cruzain without detergent; 2.3% of 200,000 active; purified cruzain, Z-FR-AMC fluorescence, no detergent; P25779; Potency, µM, for inactives: max response, negative = inhibition, most hits filed as inhibitors;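 note: plate controls were enzyme without inhibitor for no effect and buffer without enzyme for full effect; nearly all actives have a fitted effect of over 40% in size; top concentration of the series not given in the record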
Target sequence (P25779 123-467 limits assumed): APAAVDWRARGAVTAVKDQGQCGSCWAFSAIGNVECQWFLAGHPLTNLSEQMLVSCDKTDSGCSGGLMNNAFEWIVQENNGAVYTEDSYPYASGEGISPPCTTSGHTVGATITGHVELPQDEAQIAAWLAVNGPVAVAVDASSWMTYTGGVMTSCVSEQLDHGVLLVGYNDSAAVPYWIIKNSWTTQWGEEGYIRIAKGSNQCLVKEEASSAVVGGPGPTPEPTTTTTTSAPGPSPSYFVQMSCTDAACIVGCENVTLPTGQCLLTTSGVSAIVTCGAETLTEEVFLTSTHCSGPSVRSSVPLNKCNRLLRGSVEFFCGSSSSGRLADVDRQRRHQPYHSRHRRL
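Detergent-free condition (0.00005% Triton X-100) in acetate buffer pH 5.5 with DTT. 1.5 nM enzyme and compound were pre-mixed 15 min, then 2 uM Z-FR-AMC substrate added; reaction progress from fluorescence change between first and third reads (60 s).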
2A StopGo: lowers the luciferase signal of an FMDV 2A StopGo reporter | human cells with a luciferase reporter of 2A StopGo recoding; control for the full effect not named in the record | Potency, µM (highest dose often 57.9 µM), for inactives: at the top dose signal change, negative = less light | 1.2% of 410,000 active | AID 1159524; active = well fitted falling curve with a large enough effect; inconclusive = small, poorly fitted or top-dose-only effect; inactive = no such curve, though single readings can be large or run the other way; tested in HEK293T cells; note: % is set by controls: 0 for no effect and ±100 for the full control effect; nearly all actives have a fitted effect of over 45% in size; luciferase light after 4 h
NS1 function inh: influenza NS1 inhibition; S. cerevisiae slowed by influenza A NS1, growth recovery by OD600; Potency, µM (titrated, usually from 46.1 µM), without a hit: at the top dose activity, positive = more growth; 0.4% of 270,000 active; active means well fitted rising curve with a large enough effect; inconclusive means small, poorly fitted or top-dose-only effect; inactive means no such curve, though single readings can be large or run the other way; note: nearly all actives have a fitted effect of over 50% in size
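Growth recovery, yeast-based: influenza A NS1 expressed in S. cerevisiae causes slow growth, and suppressors are detected by OD600. The parent strain without NS1 is used as positive control.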
LASV entry inh: inhibitors of Lassa virus binding or cell entry; Potency, µM (doses to about 37.9 µM), for inactives: at the highest dose activity change, negative = inhibition, actives largely listed as inhibitors; 1.2% of 300,000 active; Lassa virus pseudotype entry inhibition, cell reporter; control for the full effect not named in the record; active means well fitted inhibition curve with a large enough effect; inconclusive means small, poorly fitted or top-dose-only effect, or effect the other way; inactive means flat fitted curve, though single readings scatter; tested in HEK293 cells; note: % is set by controls: 0 for no effect and ±100 for the full control effect; nearly all actives have a fitted effect of over 50% in size; luciferase read-out
RE007 growth inh: less growth of the S. pombe RE007 Vpr strain | 0.21% of 360,000 active | AID 651644 | Potency, µM (highest dose often 92.2 µM), without a hit: at the top dose activity change, negative = less growth | S. pombe RE007 Vpr strain, BacTiter-Glo ATP luminescence, 24 h; control for the full effect not named in the record; active = well fitted falling curve with a large enough effect; inconclusive = small, poorly fitted or top-dose-only effect; inactive = no such curve, though single readings can be large or run the other way;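 note: % is set by controls: 0 for no effect and ±100 for the full control effect; nearly all actives have a fitted effect of over 50% in size; the assay follows cell death caused by Vpr and the record does not say whether a fall means rescue or toxicity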
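Fission yeast RE007 carrying one integrated HIV-1 vpr copy, seeded at OD 0.01 in PMG+AL medium with 23 nL pinned compound. Grown 24 h at 30 degrees; viability read by BacTiter-Glo luminescence after 5 min.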
SARS PLpro yeast: SARS-CoV PLP inhibition in yeast. 0.19% of 330,000 active. S. cerevisiae expressing SARS-CoV PLpro, growth rescue; control for the full effect not named in the record. Potency, µM (titrated, usually from 32.9 µM), for inactives: at the top dose activity, positive = growth rescue. AID 485353; active means well fitted rising curve with a large enough effect; inconclusive means small, poorly fitted or top-dose-only effect; inactive means no such curve, though single readings can be large or run the other way; note: 0% is about no effect; nearly all actives have a fitted effect of over 55% in size; growth read by luminescence after 48 h
Cruzain Triton: inhibitors of Trypanosoma cruzi cruzain with detergent; 0.43% of 200,000 active; P25779; purified cruzain, Z-FR-AMC fluorescence, 0.01% Triton; Potency, µM, inactives show max response, negative = inhibition, most hits filed as inhibitors;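 note: plate controls were neutral wells for no effect and buffer without enzyme for full effect; nearly all actives have a fitted effect of over 40% in size; top concentration of the series not given in the record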
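Cysteine protease activity tested under reducing, mildly acidic conditions (100 mM sodium acetate pH 5.5, 5 mM DTT) plus 0.01% Triton X-100. Cruzain 1.5 nM; substrate Z-FR-AMC 2 uM; 15 min compound preincubation at room temperature.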
MARV entry inh: blocks Marburg virus binding to or entry into cells | Marburg virus pseudotyped entry inhibition, cell reporter; control for the full effect not named in the record; about a third of the inactives were read at about 46 µM | 1.8% of 300,000 active | Potency, µM (titrated, usually from 37.8 µM), for the others: at the highest dose activity change, negative = inhibition, usual class: inhibitors; active = well fitted inhibition curve with a large enough effect; inconclusive = small, poorly fitted or top-dose-only effect, or effect the other way; inactive = flat fitted curve, though single readings scatter; tested in HEK293 cells; about a fifth of its hits are not listed in these tables; note: % is set by controls: 0 for no effect and ±100 for the full control effect; luciferase read-out
Active calls of the source: *; ? = inconclusive; / = no result given; [ ] = another dose, or the depositor's remark. Unless noted, calls come from the whole dose curve; as a rule, active = well fitted curve in the direction sought with a large enough effect; inconclusive = small, poorly fitted or top-dose-only effect, or another doubt; inactive = no such curve, though single readings can be large; an effect the other way counts as inactive or inconclusive. Potency is the fitted concentration of half-maximal effect.

SMILES	Cruzain noTriton	2A StopGo	NS1 function inh	LASV entry inh	RE007 growth inh	SARS PLpro yeast	Cruzain Triton	MARV entry inh
Cc1ccc(C2=Nc3ccccc3N(CC(=O)NCc3ccc(F)cc3)C(=O)C2)cc1C	7%	12%	/	1%[46.1 µM]	/	/	-1.1%	/
Cc1cc[n+](CC(=O)Nc2ccccc2)cc1	/	-11%	24%	5%	5%	2%	/	1%
Cc1ccc(Nc2c3c(nc4nncn24)CCC3)cc1	-2%	21%	/	-6%[46.1 µM]	/	/	-3.6%	1%[46.1 µM]
CCOc1cc(/C=C2/C(=N)N3N=C(C)SC3=NC2=O)ccc1OS(=O)(=O)c1ccc(C)cc1	/	-10%	20%	7%[46.1 µM]	0%	-3%	/	1%[46.1 µM]
O=C(CCN1C(=O)[C@H]2CC=CC[C@H]2C1=O)NCc1nc(-c2ccccc2)no1	/	-24%	6%	/	11%	-5%	/	/
CC(=O)c1cccc(NC(=O)CSc2nc(=O)n(Cc3ccco3)c3c2CCC3)c1	-5%	-27%	/	?	/	/	-1.0%	/
CCOC(=O)c1sc(NC(=O)CN2CCCC2)c(C(=O)OCC)c1C	-10%	-14%	-8%	0%	11%	/	-6.4%	25%
O=C(Nc1nccs1)c1ccc(-c2ccc([N+](=O)[O-])cc2)o1	/	51%[activator]	5%	-7%	-9%	-1%	/	-2%[46.1 µM]
O=C(NCc1ccccc1)Nc1cccn(Cc2ccc(Cl)cc2)c1=O	/	-15%	-1%	/	3%	6%	/	/
COc1ccccc1C=NN=C1c2ccccc2-c2ccccc21	/	-16%	/	3%	-6%	/	/	?
O=C(Cc1ccccc1F)Nc1nc(-c2cccs2)cs1	-14%	7%	-167%	?	?	-16%	-6.5%	?
CSc1cccc(NC(=O)C2C3C=CC4(O3)C2C(=O)N(CCCN2CCOCC2)C4C(=O)NC2CCCCC2)c1 (stereo not drawn)	/	-10%	7%	10%[46.1 µM]	-2%	-6%	/	0%[46.1 µM]
C/C(=N\NC(=S)Nc1c(C)cccc1C)c1ccc(O)cc1	/	?	-4%	/	-4%	-1%	/	/
CCn1nnc2c(=O)oc3ccccc3c21	/	8%	/	-2%	-19%	0%	/	0%[46.1 µM]
CC1C=CC(C)C(C(=O)O)C1C(=O)O (stereo not drawn)	5%	8%	6%	-1%	-6%	4%	0.7%	4%
COc1ccccc1-c1nc(SCC(=O)Nc2ccc(C)c(C)c2)n[nH]1	15%	-39%	/	6%[46.1 µM]	/	/	-8.1%	?
Cc1ccc2nc(-c3ccc(NC(=O)Cc4cccs4)cc3)[nH]c2c1	?	/	-1%	?	2%	8%	-28%	-21%
COc1ccc(NC(=O)c2ccc3c(=O)n4nc(Nc5cccc(Cl)c5C)sc4nc3c2)cc1	0%	-13%	/	0%[46.1 µM]	/	/	-0.2%	/
CN(C)N1C(N)=C(C#N)C(c2cccnc2)C2=C1CCCC2=O (stereo not drawn)	5%	8%	8%	?	-12%	6%	0.0%	6%
CC(OC(=O)c1nccnc1N)C(=O)Nc1ccc(S(=O)(=O)N2CCCC2)cc1 (stereo not drawn)	/	-18%	/	-1%	19%	-1%	/	?
N#Cc1ccc(OCC(=O)N2CCN(S(=O)(=O)c3cccc(Cl)c3)CC2)cc1	/	-27%	/	-38%	1%	4%	/	-14%
Cc1nnc(C)n1/N=C/c1ccc(C(=O)O)cc1	-2%	15%	9%	?	-7%	14%	3.0%	11%
COc1cc(C(=O)CSc2nnc(-c3ccc(O)cc3)n2CC2CCCO2)ccc1NC(C)=O (stereo not drawn)	-2%	/	-2%	13%	-19%	7%	-1.7%	?
O=C(Nc1cccc(-c2cc3ccccc3oc2=O)c1)c1ccc(Br)o1	?	5%	20%	?	-8%	-23%	-14%	11%
Cc1ccc(S(=O)(=O)CCC(=O)OCc2ccc(S(=O)(=O)C(C)C)cc2)cc1	/	-6%	-8%	4%	-3%	1%	/	-14%
CCOC(=O)c1c(C)[nH]c(C)c1S(=O)(=O)N(C)CC(=O)Nc1ccc(CC)cc1	?	11%	/	0%[46.1 µM]	/	/	-5.7%	/
Cn1c(=O)[nH]c(=O)c2c1nc1n2CC(COc2ccc3ccccc3c2)O1 (stereo not drawn)	/	-24%	3%	11%	-9%	0%	/	-16%[46.1 µM]
Fc1ccc(-c2csc3[n+]2CCS3)cc1	6%	16%	-7%	9%	-9%	-33%	-2.4%	13%
CC(C)c1ccc(OC(=O)c2ccc3c(=O)n4c(nc3c2)CCC4)cc1	/	15%	/	2%	-5%	-17%	/	3%
COc1ccc(-c2cc(C3CCN(c4ccc(C(C)=O)cc4[N+](=O)[O-])CC3)[nH]n2)cc1	?	18µM*	?	?	2%	-8%	-2.6%	?

Pulled by structure from the list above (two):
SMILES	Cruzain noTriton	2A StopGo	NS1 function inh	LASV entry inh	RE007 growth inh	SARS PLpro yeast	Cruzain Triton	MARV entry inh
COc1ccc(NC(=O)c2ccc3c(=O)n4nc(Nc5cccc(Cl)c5C)sc4nc3c2)cc1	0%	-13%	/	0%[46.1 µM]	/	/	-0.2%	/
N#Cc1ccc(OCC(=O)N2CCN(S(=O)(=O)c3cccc(Cl)c3)CC2)cc1	/	-27%	/	-38%	1%	4%	/	-14%

Next compounds
SMILES	Cruzain noTriton	2A StopGo	NS1 function inh	LASV entry inh	RE007 growth inh	SARS PLpro yeast	Cruzain Triton	MARV entry inh
O=C(NC1CCN(C(=S)Nc2ccc(F)cc2)CC1)c1ccco1	/	0%	17%	0%[46.1 µM]	5%	10%	/	?
c1ccc(CN2CCN(c3ncnc4c3[nH]c3ccccc34)CC2)cc1	-3%	10µM*	-88%	?	1%	-11%	-9.4%	?
Cc1cc(C)cc(N(CCC#N)C(=O)COC(=O)c2ccccc2SCC(=O)N2CCCC2)c1	/	-22%	-9%	-5%	7%	1%	/	?
Nc1nc(-c2ccc(Br)cc2)cc(C(F)(F)F)n1	?	3%	1%	-27%	-3%	-1%	3.7%	-25%[46.1 µM]
O=c1c(-c2ccco2)[n+]([O-])c2ccccc2n1OCc1c(F)cccc1F	/	?	2%	14%	7%	-1%	/	9%[46.1 µM]
O=C(c1cc([N+](=O)[O-])ccc1N1CCCC1)N1CCCC1	/	-5%	-1%	-16%	11%	-1%	/	-6%[46.1 µM]
O=C(C1=C(O)C(=O)N(Cc2ccco2)C1c1cccc([N+](=O)[O-])c1)c1ccco1 (stereo not drawn)	/	49%[activator]	5%	?	-20%	-4%	/	9%
N=c1c2c(-c3ccccc3)c(-c3ccccc3)oc2ncn1CCN1CCOCC1	11%	?	-38%	1%	-11%	-19%	-7.1%	?
CC(C)CN1CCN(Cc2c[nH]c3ccccc23)CC1CCO (stereo not drawn)	/	-12%	?	/	-7%	3%	/	/
COc1ccc(S(=O)(=O)N2CCC(=O)N2)cc1	-4%	16%	1%	8%	5%	-2%	5.5%	3%
COc1ccc(CN(Cc2ccccn2)C(=O)CN2C(=O)C(C)Oc3ccccc32)cc1 (stereo not drawn)	6%	-15%	-14%	-30%	4%	-2%	-0.4%	?
Cc1c(Cl)cccc1NC(=O)CSc1nc2c(c(=O)[nH]1)CCCC2	?	/	0%	4%	/	15%	-1.4%	26%
COc1ccc(NC(=O)CSc2ncnc3sc(C)cc23)cc1	/	-1%	-7%	-6%[46.1 µM]	2%	1%	/	14%[46.1 µM]
Cc1ccc(S(=O)(=O)N2CCCC2c2cccnc2)cc1 (stereo not drawn)	/	-17%	-2%	29%	-12%	1%	/	?
Cc1ccc2occ(/C=C/C(=O)O)c(=O)c2c1	-1%	19%	-58%	10%	-1%	-5%	-2.4%	2%
Cc1cc(C)cc(NC(=O)CSc2nc(=O)[nH]c3c2CCC3)c1	21%	-12%	/	-2%[46.1 µM]	/	/	0.2%	/
CCOc1ccc(S(=O)(=O)NCCc2ccccn2)cc1	/	48%[activator]	/	8%	1%	4%	/	0%
COc1ccc(S(=O)(=O)N2CCCCCC2)cc1N(C)S(=O)(=O)c1ccc(Cl)cc1	3%	/	30%	-42%	14%	1%	0.4%	?
O=C(CSCc1cccc(CSCC(=O)Nc2ccc3ccccc3c2)n1)Nc1ccc2ccccc2c1	?	-27%	2%	-25%	6%	-3%	2.9%	?
CC(C)(C)NC(=O)COc1ccc(CNc2ccc3[nH]c(=O)[nH]c3c2)cc1	0%	5%	-18%	-2%	-6%	5%	1.5%	2%
O=C(N/N=C/C(Cl)=C\c1ccccc1)c1cccs1	/	7%	-40%	?	?	-2%	/	?
COc1cccc(CC2(CO)CCCN(Cc3ccc4c(c3)OCCO4)C2)c1 (stereo not drawn)	/	-22%	1%	?	-11%	0%	/	0%[46.1 µM]
Cc1ncoc1C(=O)NCc1ccccc1Cl	2%	6%	0%	-2%	-23%	10%	3.3%	?
Cc1nn(C)c(Cl)c1CN1CCCC(C(=O)Nc2cccc(-n3cccn3)c2)C1 (stereo not drawn)	/	?	-21%	-18%	-15%	-2%	/	?
CN(Cc1ccc(C(C)(C)C)cc1)C(=O)C1CCN(C(=O)Nc2ccccc2)CC1	/	?	/	?	9%	1%	/	?

Record cards, from the list above.
Shown for CC(C)(C)NC(=O)COc1ccc(CNc2ccc3[nH]c(=O)[nH]c3c2)cc1 = Cruzain noTriton = 0%; 2A StopGo = 5%; NS1 function inh = -18%; LASV entry inh = -2%; RE007 growth inh = -6%; SARS PLpro yeast = 5%; Cruzain Triton = 1.5%; MARV entry inh = 2%
Shown for CCOc1ccc(S(=O)(=O)NCCc2ccccn2)cc1 = Cruzain noTriton = /; 2A StopGo = 48%[activator]; NS1 function inh = /; LASV entry inh = 8%; RE007 growth inh = 1%; SARS PLpro yeast = 4%; Cruzain Triton = /; MARV entry inh = 0%
Shown for CN(Cc1ccc(C(C)(C)C)cc1)C(=O)C1CCN(C(=O)Nc2ccccc2)CC1 = Cruzain noTriton = /; 2A StopGo = ?; NS1 function inh = /; LASV entry inh = ?; RE007 growth inh = 9%; SARS PLpro yeast = 1%; Cruzain Triton = /; MARV entry inh = ?

Compound activity deposited in PubChem BioAssay by National Center for Advancing Translational Sciences (NCATS).
